Assay outcomes: PubChem, National Center for Advancing Translational Sciences (NCATS)
GLA inh pH 4.5: inhibitors of human alpha-galactosidase A at pH 4.5; 230,000 tested, under 10 active; activity change, negative = inhibition, % at 105 µM; P06280; purified enzyme, 4-MU-alpha-Gal fluorescence, pH 4.5; inconclusive = small, poorly fitted or top-dose-only inhibition, or a rising curve; inactive = flat fitted curve, though single readings scatter; no compound was filed as active;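 note: 0% = full activity with enzyme and -100% = basal without enzyme; dose as in the result columns while the protocol names 77 µM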
miR-21 reporter: raises the signal of a miR-21 reporter; HeLa miR-21 FLuc reporter, luciferase, 48 h; Potency, µM (top dose mostly 38.3 µM), for inactives: at the highest dose reporter change, positive = more light; 340,000 tested, under 10 active; AID 2288; active = well fitted rising curve with a large enough effect; inconclusive = small, poorly fitted or top-dose-only effect; inactive = no such curve, though single readings can be large or run the other way;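 note: % of control where 0% means no effect; miR-21 action dims this reporter so a rising signal means less miR-21 action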
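Using DMEM plus 10% FBS, HeLa miR-21-FLuc cells are incubated with test compounds (final up to about 40uM) for 48 hours; firefly luciferase signal is then imaged following reagent-mediated lysis.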
Rango dissoc inh: inhibitors of RanGTP-induced Rango-importin beta complex dissociation | O95149+P62826 | 340,000 tested, 0.071% active | Potency, µM (doses to about 46.1 µM), inactives show top-dose activity change, negative = inhibition | Biochemical FRET Rango-importin beta, RanGTP-induced dissociation; active means falling FRET ratio curve, often poorly fitted, with flat reads before Ran was added; inconclusive means other falling curves, or compound fluorescence or quenching; inactive means flat or rising ratio curve;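 note: potency is the fitted concentration of half-maximal effect; % of control where 0% means no effect; nearly all actives have a fitted effect of over 45% in size; -100% = wells without RanGTP and RCC1; the record marks most hits as doubtful in a second field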
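Rango/importin beta premix (0.1/0.25 uM final), PBS + 1 mM DTT + 0.02% Tween-20 + 0.1% BSA; cpd 5 min RT; FRET pre-read; + RanGTP-RCC1 (0.6 uM Ran, 2 mM GTP, 0.2 uM RCC1); 45 min RT; FRET post-read, ex 430, em 486/530 nm.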
Rango complex inh: Rango-importin beta binding inhibition | Potency, µM (doses to about 92.2 µM), without a hit: top-dose inhibition of complex formation | Q14974 | Rango CFP/YFP FRET sensor + importin beta, 45 min | 340,000 tested, 0.031% active | AID 540263; active = rising FRET ratio curve, often small or poorly fitted; inconclusive = mostly compound fluorescence or quenching in the first reads; inactive = flat curves in all reads;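 note: potency is the fitted concentration of half-maximal effect; 0% = DMSO wells and 100% = buffer wells lacking importin beta; nearly all actives have a fitted effect of over 15% in size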
Target sequence (Q14974 whole entry, looked up): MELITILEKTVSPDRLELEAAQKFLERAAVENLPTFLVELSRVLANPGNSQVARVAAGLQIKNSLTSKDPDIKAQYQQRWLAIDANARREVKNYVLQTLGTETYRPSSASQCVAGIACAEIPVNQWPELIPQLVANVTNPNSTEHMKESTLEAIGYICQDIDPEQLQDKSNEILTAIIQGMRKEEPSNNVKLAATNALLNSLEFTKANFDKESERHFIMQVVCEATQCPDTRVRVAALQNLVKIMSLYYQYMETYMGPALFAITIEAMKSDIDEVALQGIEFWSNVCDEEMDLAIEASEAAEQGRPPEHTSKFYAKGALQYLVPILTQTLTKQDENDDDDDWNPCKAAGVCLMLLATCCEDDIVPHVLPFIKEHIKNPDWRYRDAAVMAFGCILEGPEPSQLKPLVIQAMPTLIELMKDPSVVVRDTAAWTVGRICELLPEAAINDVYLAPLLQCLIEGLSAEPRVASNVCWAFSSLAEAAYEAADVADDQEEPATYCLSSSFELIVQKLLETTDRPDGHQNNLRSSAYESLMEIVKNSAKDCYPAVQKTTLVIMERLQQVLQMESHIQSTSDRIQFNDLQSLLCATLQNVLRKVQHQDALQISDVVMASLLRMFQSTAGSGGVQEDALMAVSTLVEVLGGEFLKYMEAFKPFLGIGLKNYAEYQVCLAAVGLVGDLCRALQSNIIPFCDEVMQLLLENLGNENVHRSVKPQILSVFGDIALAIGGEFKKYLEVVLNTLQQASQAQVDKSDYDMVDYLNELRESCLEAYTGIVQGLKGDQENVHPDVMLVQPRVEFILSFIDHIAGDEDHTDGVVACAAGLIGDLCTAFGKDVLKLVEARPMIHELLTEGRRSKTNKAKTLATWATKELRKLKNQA
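FRET biosensor (snurportin 1 IBB flanked by EYFP and cerulean), 50 nM, with compound 5 min, then 0.125 microM importin beta in PBS, 1 mM DTT, 0.02% Tween-20, 0.1% BSA. CFP/YFP ratio read after 45 min at room temperature; pre-read flags interference.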
An asterisk follows results filed as active; ? = inconclusive; / = no result given; & = joins results of further samples. A portion of the library (hit frequency here may not be typical).

nr	GLA inh pH 4.5	miR-21 reporter	Rango dissoc inh	Rango complex inh	SMILES
1	/	/	19%	1.9%	COC(=O)c1ccc(CSC2=NC[C@@H]3[C@@H]4C(=O)N(C)C(=O)[C@@H]4[C@](C)(C(=O)OC)N23)cc1
2	/	1%	2%	0.1%	COc1ccc(OCc2nnc(SCC(=O)Nc3ccc(C)cc3)o2)cc1
3	/	-4%	?	-2.9%	COc1ccc(NC(=O)c2oc3ccccc3c2C)cn1
4	-2	-8%	?	?	O=C(c1cnn2c(C(F)(F)F)cc(-c3cccs3)nc12)N1CCN(Cc2ccccc2)CC1
5	/	-18%	19%	-3.7%	Oc1ccccc1-c1cc(-c2ccc(F)cc2)n[nH]1
6	0	-3%	-19%	-11%	O=c1c(C(c2ccc(Br)cc2)c2c(O)nc3n(c2=O)CCS3)c(O)nc2n1CCS2
7	-1	-2%	3%	3.4%	COC(=O)c1sccc1NC(=O)CC1NCCNC1=O (stereo not given)
8	3	-50%	7%	0.4%	CCOC(=O)Nc1ccc(C(=O)Oc2ccccc2)c(O)c1
9	-12	-3%	2%	12%	CC(C)(C)c1ccc(C(=O)Nc2cnccn2)cc1
10	/	7%	-9%	1.1%	COc1ccc(S(=O)(=O)N2CCc3cc4c(cc3C2C)OCCCO4)cc1 (stereo not given)
11	7	1%	-24%	?	O=C(O)C1Nc2c(C(=O)N3CCOCC3)cccc2C2C=CCC12 (stereo not given)
12	-3	-3%	-1%	-2.9%	COc1ccc(CC(=O)c2cc(OC)c(OC)cc2CC(=O)O)cc1OC
13	-2	0%	-3%	0.4%	COc1ccccc1NC(=O)NC(=O)N(C(C)C)S(C)(=O)=O
14	/	-1%	-8%	1.0%	COc1ccccc1NC(=O)COC(=O)C1C2CC3OC(=O)C1C3C2 (stereo not given)
15	4	-11%	-17%	-0.2%	C1=Nc2c(Nc3ccccc3)ncnc2Oc2ccccc21
16	/	-9%	-8%	8.2%	CCC(=O)N1CCc2cc(Br)cc(S(=O)(=O)NCCN3CCCC3)c21
17	7	1%	/	/	O=C(CSc1nnc(SCc2cccc3ccccc23)s1)N=Nc1c(O)[nH]c2ccccc12
18	/	14%	7%	-3.6%	Cc1ccc[n+](CC(=O)Nc2ccc([N+](=O)[O-])cc2)c1
19	/	12%	7%	1.0%	COc1ccccc1CC(=O)Nc1ccc(S(=O)(=O)N2CCCC2)cc1
20	/	-4%	-10%	?	CC(=O)NCCc1nc2cc(NC(=O)COc3ccc(C)cc3)ccc2n1C
21	8	-4%	-6%	?	Cc1cc(C)n(-c2cc(-n3nc(C)cc3C)ncn2)n1
22	-8	-8%	/	/	CC(=O)NC(Cc1ccccc1C)C(=O)NC1CCN(c2ncccc2[N+](=O)[O-])CC1 (stereo not given)
23	2	6%	-16%	-3.2%	Cc1ccc(OCCNC(=O)c2cccc(Oc3ccc(C(F)(F)F)cc3[N+](=O)[O-])c2)cc1
24	/	/	-9%	1.9%	Cc1ccccc1NC(=O)Cc1nc(CN(C)CC(=O)Nc2cccc(F)c2)cs1
25	-2	15%	-13%	?	CCN(CC)C(=O)C1CCCc2c1[nH]c1ccc(Cl)cc21 (stereo not given)
26	/	-4%	-7%	-1.8%	CCc1ccccc1OCCCCN1CCCCC1
27	/	/	-22%	?	O=C(CCc1nc2sc3c(c2c(=O)[nH]1)CCCC3)NCC(=O)Nc1ccccc1Br
28	/	/	1%	-0.4%	Cc1ccc(NC(C(=O)c2ccccc2)c2ccccc2)cc1 (stereo not given)
29	-11	-54%	0%	-0.3%	Nc1[nH]c(N=NC(=O)c2ccccc2O)c2ccccc12
30	-5	0%	-2%	-1.2%	CCOC(=O)C1CN(S(=O)(=O)c2ccc(OC)cc2)c2cc(S(=O)(=O)CC)ccc2O1 (stereo not given)
31	/	/	?	?	O=C(Nc1ccccc1C(F)(F)F)NC1(C(=O)N2CCOCC2)CCCCC1
32	-8	-12%	6%	-4.0%	O=C(COC(=O)CCSc1ccc(Cl)cc1)NCc1ccc(Cl)cc1
33	1	-3%	-4%	-1.9%	CCCCN1CC(O)=C(c2nc(-c3ccc(Cl)cc3)cs2)C1=N
34	/	0%	1%	1.9%	CCOc1ccccc1NC(=O)COc1ccc(S(=O)(=O)N2CCCC2)cc1
35	/	/	7%	-0.6%	COc1ccc(NC(=O)CN(C)C(=O)CN2C(=O)C3CCCCC3C2=O)cc1 (stereo not given)
36	-1	-40%	1%	3.3%	O=C1CNC(=S)N1c1nc(-c2ccccc2)cs1
37	/	/	-23%	?	CC(=O)c1sc(NC(=O)CCCc2nc3ccccc3c(=O)[nH]2)nc1-c1ccccc1
38	5	3%	-5%	4.0%	CS(=O)(=O)N(CC(=O)Nc1ccc(C(N)=O)cc1)C1CCCCC1
39	/	/	-9%	-1.2%	CCOC(=O)N1CCC(Nc2nc3ccccc3n3cnnc23)CC1
40	/	/	34%	2.6%	COc1ccc(Cc2nc3ccccc3c(=O)n2N)cc1OC
41	/	-4%	4%	-1.1%	COc1ccc(C(=O)Nc2ccnn2C2CCN(Cc3cn(C)nc3C)CC2)cc1
42	-4	12%	20%	-7.1%	COc1ccccc1C(=O)NNC(=O)c1nn(Cc2ccccc2)c(=O)c2ccccc12
43	/	-30%	-16%	-0.4%	COc1ccccc1NC(=O)c1ccccc1NC(=O)c1ccccc1C(=O)O
44	-4	-3%	10%	-3.6%	CN(c1ccccc1)S(=O)(=O)c1cc(C(=O)OCC(=O)N2CCN(C(=O)c3ccco3)CC2)ccc1Cl
45	-4&2	1%	3%	11%	COc1cc(CC(=O)O)ccc1O
46	/	0%&-3%	0%	-1.7%	CCCCN(C)CCNC(=O)CN1C(=O)CSc2ccc(S(=O)(=O)N3CCOCC3)cc21
47	/	8%	39%	2.6%	Cc1ccc(CCNS(=O)(=O)c2cc3c(cc2Cl)NC(=O)CO3)cc1
48	6	1%	-3%	-2.5%	CCOC(=O)N1CCC(NC(=O)C2CCCN(c3nc4ccccc4o3)C2)CC1 (stereo not given)
49	/	-1%	4%	1.7%	CN(Cc1c(C(=O)N/N=C/c2c(F)cccc2Cl)nnn1-c1nonc1N)c1ccccc1
50	2	13%	?	?	OCC(Cc1ccccc1)Nc1c2ccccc2nc2ccccc12 (stereo not given)

By substructure: those above with a Cl atom.
nr	GLA inh pH 4.5	miR-21 reporter	Rango dissoc inh	Rango complex inh	SMILES
25	-2	15%	-13%	?	CCN(CC)C(=O)C1CCCc2c1[nH]c1ccc(Cl)cc21 (stereo not given)
32	-8	-12%	6%	-4.0%	O=C(COC(=O)CCSc1ccc(Cl)cc1)NCc1ccc(Cl)cc1
33	1	-3%	-4%	-1.9%	CCCCN1CC(O)=C(c2nc(-c3ccc(Cl)cc3)cs2)C1=N
44	-4	-3%	10%	-3.6%	CN(c1ccccc1)S(=O)(=O)c1cc(C(=O)OCC(=O)N2CCN(C(=O)c3ccco3)CC2)ccc1Cl
47	/	8%	39%	2.6%	Cc1ccc(CCNS(=O)(=O)c2cc3c(cc2Cl)NC(=O)CO3)cc1
49	/	-1%	4%	1.7%	CN(Cc1c(C(=O)N/N=C/c2c(F)cccc2Cl)nnn1-c1nonc1N)c1ccccc1

Two compounds drawn at random from those above:
nr	GLA inh pH 4.5	miR-21 reporter	Rango dissoc inh	Rango complex inh	SMILES
45	-4&2	1%	3%	11%	COc1cc(CC(=O)O)ccc1O
3	/	-4%	?	-2.9%	COc1ccc(NC(=O)c2oc3ccccc3c2C)cn1

Entries of single compounds, looked up by structure. Values in the order: GLA inh pH 4.5	miR-21 reporter	Rango dissoc inh	Rango complex inh
CCOC(=O)N1CCC(NC(=O)C2CCCN(c3nc4ccccc4o3)C2)CC1 (stereo not given) reads 6	1%	-3%	-2.5%
Nc1[nH]c(N=NC(=O)c2ccccc2O)c2ccccc12 reads -11	-54%	0%	-0.3%
O=C(CCc1nc2sc3c(c2c(=O)[nH]1)CCCC3)NCC(=O)Nc1ccccc1Br reads /	/	-22%	?
O=C(Nc1ccccc1C(F)(F)F)NC1(C(=O)N2CCOCC2)CCCCC1 reads /	/	?	?
OCC(Cc1ccccc1)Nc1c2ccccc2nc2ccccc12 (stereo not given) reads 2	13%	?	?

(next part)
nr	GLA inh pH 4.5	miR-21 reporter	Rango dissoc inh	Rango complex inh	SMILES
51	6	1%	21%	0.3%	C=C(C)CC1N(c2cccc(OC)c2)C(=O)C2C(C(=O)O)C3C=CC21O3 (stereo not given)
52	/	/	3%	-1.0%	Cc1cccc(NC(=O)CNC(=O)COC(=O)C2CC2C)c1C (stereo not given)
53	6	-1%	-2%	-0.6%	CN(C)S(=O)(=O)c1cccc(N2C(=O)CC3(CCCCC3)CC2=O)c1
54	4	0%	48%	3.4%	COc1ccc(C(=O)NC(=S)Nc2cccc3nc(C)ccc23)cc1OC
55	/	/	-12%	0.4%	Cc1cccc(C(=O)NCC(=O)NCC(c2cccs2)N2CCOCC2)c1 (stereo not given)
56	/	-1%	2%	4.0%	CC1CCN(C(=O)C2CCC(=O)N(Cc3ccc(Cl)cc3)C2)CC1 (stereo not given)
57	-1	0%	-2%	-0.2%	O=C(O)C1CC1C(=O)Nc1cc(F)ccc1F (stereo not given)
58	/	/	15%	-5.9%	CCCCCN(C(=O)CCC(=O)OCc1ccccc1F)c1c(N)n(CCCC)c(=O)[nH]c1=O
59	/	1%	8%	1.7%	Oc1ccc2c(c1)c1c3n2CCNC3CCC1 (stereo not given)
60	-8	-32%	-5%	-1.1%	Cc1ccc(N2C(=O)CS(=O)C(c3ccccc3)C2=O)cc1C (stereo not given)
61	/	4%	3%	0.1%	Clc1ccc(Sc2ccccn2)cc1
62	/	13%	?	-1.7%	Cn1c(N)c(C(C[N+](=O)[O-])c2c(F)cccc2Cl)c(=O)n(C)c1=O (stereo not given)
63	/	/	-1%	8.8%	COc1cc(S(=O)(=O)N(C)Cc2ccc3c(c2)OCCO3)ccc1NC(C)=O
64	/	/	-12%	3.9%	CC(C)c1ccc2c(c1)C(N1CCNCC1)Cc1ccc(F)cc1S2 (stereo not given)
65	-8	-27%	0%	1.0%	Cc1nnc(SCC(=O)Nc2ncc(Cc3ccc(F)cc3)s2)n1N
66	13	-3%	5%	-2.6%	CCOC(=O)c1c(C)oc2cc(Br)c(OC)cc12
67	4	-21%	22%	-5.9%	CN(C)S(=O)(=O)c1ccc2nnn(OCC(=O)NC34CC5CC(CC(C5)C3)C4)c2c1
68	-6	-9%	?	?	Cc1ccc(/C=C2/SC(=O)NC2=S)o1
69	-14	7%	1%	2.5%	C=CCN(CC=C)S(=O)(=O)c1ccc(NC(=S)NC(=O)Cc2ccc(OC)cc2)cc1
70	/	-9%	4%	-3.6%	CC(=O)N1CCc2cc(S(=O)(=O)CCC(=O)N(C)c3cc(C)ccc3C)ccc21
71	3	-26%	15%	-3.6%	COc1ccc(Nc2nc(N)nc(CN3CCc4ccccc4C3)n2)cc1
72	/	/	1%	1.3%	CSc1ccccc1NC(=O)CN(C)CC(=O)c1c(C)[nH]c2ccccc12
73	/	-10%	9%	0.8%	CCCC(=O)N(CCN1CCOCC1)c1nc2c(OCC)cccc2s1
74	0	-17%	3%	-1.6%	COc1ccc(/C=N/NC(=O)CSCc2ccc([N+](=O)[O-])cc2)cc1OC
75	-1	-26%	7%	-1.9%	Cc1ccccc1C(=O)O/N=C1\CCS(=O)(=O)c2sccc21
